# Screens deposited in PubChem BioAssay by National Center for Advancing Translational Sciences (NCATS).
# Cruzain noTriton = qHTS Assay for Promiscuous and Specific Inhibitors of Cruzain (without detergent); Cruzipain (Trypanosoma cruzi), P25779; purified cruzain, Z-FR-AMC fluorescence, no detergent; Potency, µM, for the others: max response, negative = inhibition, usual class: inhibitors; actives 2.3% (n = 200,000); AID 1476, 2009;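 note: plate controls were enzyme without inhibitor for no effect and buffer without enzyme for full effect; nearly all actives have a fitted effect of over 40% in size; top concentration of the series not given in the record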
# Target sequence (P25779 123-467 limits assumed): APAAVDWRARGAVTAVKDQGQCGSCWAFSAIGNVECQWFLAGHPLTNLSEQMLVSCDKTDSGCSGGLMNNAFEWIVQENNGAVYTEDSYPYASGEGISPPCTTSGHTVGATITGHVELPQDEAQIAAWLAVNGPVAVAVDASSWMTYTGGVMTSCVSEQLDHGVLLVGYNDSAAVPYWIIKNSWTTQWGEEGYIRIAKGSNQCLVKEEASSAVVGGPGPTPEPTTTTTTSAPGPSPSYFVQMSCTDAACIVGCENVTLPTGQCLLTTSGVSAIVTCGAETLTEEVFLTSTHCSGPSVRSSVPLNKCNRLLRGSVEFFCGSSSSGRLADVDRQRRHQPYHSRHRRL
#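 Detergent-free condition (0.00005% Triton X-100) in acetate buffer pH 5.5 with DTT. 1.5 nM enzyme and compound were pre-mixed 15 min, then 2 uM Z-FR-AMC substrate added; reaction progress from fluorescence change between first and third reads (60 s).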
# NS1 inh = qHTS Assay for Inhibitors of Influenza NS1 Protein Function | actives 0.4% (n = 270,000) | S. cerevisiae slowed by influenza A NS1, growth recovery by OD600 | Potency, µM (top dose mostly 46.1 µM), for inactives: top-dose activity, positive = more growth | AID 2326, 2010; active means well fitted rising curve with a large enough effect; inconclusive means small, poorly fitted or top-dose-only effect; inactive means no such curve, though single readings can be large or run the other way; note: nearly all actives have a fitted effect of over 50% in size
#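 A cell-based growth assay was used: compounds that relieve NS1-induced slow growth of budding yeast raise OD600. Assay medium was yeast nitrogen base with ammonium sulphate and -URA supplement, pH 6.0, with 2% galactose.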
# StopGo reporter = High Throughput Screening for Foot and Mouth Disease Virus Antivirals; human cells with a luciferase reporter of 2A StopGo recoding; control for the full effect not named in the record; Potency, µM (doses to about 57.9 µM), for inactives: top-dose signal change, negative = less light; actives 1.2% (n = 410,000); AID 1159524, 2015; active = well fitted falling curve with a large enough effect; inconclusive = small, poorly fitted or top-dose-only effect; inactive = no such curve, though single readings can be large or run the other way; tested in HEK293T cells; note: % is set by controls: 0 for no effect and ±100 for the full control effect; nearly all actives have a fitted effect of over 45% in size; luciferase light after 4 h
# Marburg entry inh = qHTS for inhibitors of binding or entry into cells for Marburg Virus; Potency, µM (doses to about 37.8 µM), without a hit: at the top dose activity change, negative = inhibition, hits mostly inhibitors; actives 1.8% (n = 300,000); Marburg virus pseudotyped entry inhibition, cell reporter; control for the full effect not named in the record; about a third of the inactives were read at about 46 µM; AID 540276, 2011; active = well fitted inhibition curve with a large enough effect; inconclusive = small, poorly fitted or top-dose-only effect, or effect the other way; inactive = flat fitted curve, though single readings scatter; tested in HEK293 cells; about a fifth of its hits are not listed in these tables; note: % is set by controls: 0 for no effect and ±100 for the full control effect; luciferase read-out
# LASV entry inh = qHTS for Inhibitors of binding or entry into cells for Lassa Virus; AID 540256, 2011; Lassa virus pseudotype entry inhibition, cell reporter; control for the full effect not named in the record; Potency, µM (top dose mostly 37.9 µM), without a hit: top-dose activity change, negative = inhibition, hits mostly inhibitors; actives 1.2% (n = 300,000); active means well fitted inhibition curve with a large enough effect; inconclusive means small, poorly fitted or top-dose-only effect, or effect the other way; inactive means flat fitted curve, though single readings scatter; tested in HEK293 cells; note: % is set by controls: 0 for no effect and ±100 for the full control effect; nearly all actives have a fitted effect of over 50% in size; luciferase read-out
# Cruzain inh Det = qHTS Assay for Promiscuous and Specific Inhibitors of Cruzain (with detergent); Potency, µM, for inactives: max response, negative = inhibition, usual class: inhibitors; actives 0.43% (n = 200,000); purified cruzain, Z-FR-AMC fluorescence, 0.01% Triton;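 note: plate controls were neutral wells for no effect and buffer without enzyme for full effect; nearly all actives have a fitted effect of over 40% in size; top concentration of the series not given in the record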
#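 Compounds were screened in titration against cruzain (1.5 nM) with 0.01% Triton X-100 to counter colloidal aggregation. Activity was the AMC fluorescence increase over 60 s after adding 2 uM Z-FR-AMC at pH 5.5.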
# RE007 growth inh = qHTS Assay for Inhibitors of the HIV-1 protein Vpr; Potency, µM (highest dose often 92.2 µM), for inactives: at the top dose activity change, negative = less growth; actives 0.21% (n = 360,000); S. pombe RE007 Vpr strain, BacTiter-Glo ATP luminescence, 24 h; control for the full effect not named in the record; active = well fitted falling curve with a large enough effect; inconclusive = small, poorly fitted or top-dose-only effect; inactive = no such curve, though single readings can be large or run the other way;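 note: % is set by controls: 0 for no effect and ±100 for the full control effect; nearly all actives have a fitted effect of over 50% in size; the assay follows cell death caused by Vpr and the record does not say whether a fall means rescue or toxicity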
#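 Fission yeast strain RE007, carrying one chromosomally integrated HIV-1 vpr copy, was seeded at OD 0.01 in PMG+AL medium with 23 nL pinned compound. After 24 h at 30 °C and 99% humidity, viability was read by BacTiter-Glo luminescence.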
# SARS PLP yeast = qHTS of Yeast-based Assay for SARS-CoV PLP; S. cerevisiae expressing SARS-CoV PLpro, growth rescue; control for the full effect not named in the record; Potency, µM (doses to about 32.9 µM), inactives show at the top dose activity, positive = growth rescue; actives 0.19% (n = 330,000); active means well fitted rising curve with a large enough effect; inconclusive means small, poorly fitted or top-dose-only effect; inactive means no such curve, though single readings can be large or run the other way; note: 0% is about no effect; nearly all actives have a fitted effect of over 55% in size; growth read by luminescence after 48 h
# The depositor's hits bear a star; ? = inconclusive; . = not tested or not shown; & = joins results of further samples; [ ] = remark or other dose. Unless noted, calls come from the whole dose curve; as a rule, active = well fitted curve in the direction sought with a large enough effect; inconclusive = small, poorly fitted or top-dose-only effect, or another doubt; inactive = no such curve, though single readings can be large; an effect the other way counts as inactive or inconclusive. Potency is the fitted concentration of half-maximal effect.
Molecule | Cruzain noTriton | NS1 inh | StopGo reporter | Marburg entry inh | LASV entry inh | Cruzain inh Det | RE007 growth inh | SARS PLP yeast
COCCn1c(SCC(=O)Nc2nc(C)c(Cl)cc2Cl)nc2ccccc21 | ? | -34% | -2% | ? | 23µM* | -1.2% | 9% | ?
COc1ccc(-c2csc(NC(=O)C3CC(=O)N(Cc4ccccc4)C3)n2)cc1OC (configuration not stated) | . | 11% | 32µM* | ? | -18% | . | -4% | -2%
CCOC(=O)c1ccc(S(=O)(=O)N2CCC(C(=O)O)CC2)cc1 | 5% | -3% | -27% | 4% | 7% | 8.8% | 11% | -4%
c1ccc(CCNc2ncnc3nc[nH]c23)cc1 | 7% | -1% | -19% | ? | -11% | 1.9% | -9% | -11%
COc1ccccc1Nc1ccc(NS(=O)(=O)c2ccc(C(C)=O)cc2)cc1 | . | -5% | 2% | ? | ? | . | 6% | -4%
Cc1ccc(/C=C/c2onc(C)c2S(=O)(=O)N2CCC(C(=O)N3CCN(C)CC3)CC2)cc1 | . | -4% | -19% | . | . | . | 15% | 16%
ClCc1csc(-c2ccccc2Cl)n1 | . | . | -6% | 7%[46.1 µM] | -2% | . | 3% | 0%
CCOc1ccc(NC(=O)N(CCN2CCOCC2)Cc2ccc3c(c2)CCCN3CC)cc1 | -3% | -8% | -23% | -3%&-3% | -22% | 4.7% | 22% | -5%

# 7 compounds from above, showing only RE007 growth inh and StopGo reporter.
SMILES	RE007 growth inh	StopGo reporter
COCCn1c(SCC(=O)Nc2nc(C)c(Cl)cc2Cl)nc2ccccc21	9%	-2%
COc1ccc(-c2csc(NC(=O)C3CC(=O)N(Cc4ccccc4)C3)n2)cc1OC (configuration not stated)	-4%	32µM*
CCOC(=O)c1ccc(S(=O)(=O)N2CCC(C(=O)O)CC2)cc1	11%	-27%
c1ccc(CCNc2ncnc3nc[nH]c23)cc1	-9%	-19%
COc1ccccc1Nc1ccc(NS(=O)(=O)c2ccc(C(C)=O)cc2)cc1	6%	2%
Cc1ccc(/C=C/c2onc(C)c2S(=O)(=O)N2CCC(C(=O)N3CCN(C)CC3)CC2)cc1	15%	-19%
ClCc1csc(-c2ccccc2Cl)n1	3%	-6%

# The listing picks up, starting 2 compounds before the break.
Molecule | Cruzain noTriton | NS1 inh | StopGo reporter | Marburg entry inh | LASV entry inh | Cruzain inh Det | RE007 growth inh | SARS PLP yeast
ClCc1csc(-c2ccccc2Cl)n1 | . | . | -6% | 7%[46.1 µM] | -2% | . | 3% | 0%
CCOc1ccc(NC(=O)N(CCN2CCOCC2)Cc2ccc3c(c2)CCCN3CC)cc1 | -3% | -8% | -23% | -3%&-3% | -22% | 4.7% | 22% | -5%
CC(C)C(C)(C#N)NC(=O)CSc1ncnc2sc(-c3ccccc3)cc12 (configuration not stated) | ? | 3% | . | -26% | -17% | 0.0% | -3% | 3%
Cc1ccc(NC2=NC(c3ccccc3)n3c(nc(C)cc3=O)N2)cc1 (configuration not stated) | 13% | -40% | -15% | 4% | 6% | 2.2% | -9% | ?
CN(CC(=O)NCCN1CCOCC1)S(=O)(=O)c1ccc(Cl)cc1 | . | . | -23% | ? | 3% | . | 13% | 2%
CCCSc1nc(NCc2ccco2)c2c3c(sc2n1)COC(C)(C)C3 | 5% | 19% | 22% | 5% | 9% | -6.0% | -4% | -27%
Cc1cc(C)cc(OCC(=O)NN2Cc3ccccc3C2=N)c1 | -4% | 2% | -9% | 3% | 2% | 3.6% | -11% | 9%
CC1CCC(NC(=O)CC2Oc3ccccc3NC2=O)CC1 (configuration not stated) | -4% | -2% | -13% | . | . | 0.6% | 8% | 4%
CSc1nc(C)c(CCO)c(=O)[nH]1 | . | . | -6% | ? | 20%[46.1 µM] | . | 1% | 0%
Cc1cc(C2=NNC(=Nc3ccc(S(=O)(=O)N4CCOCC4)cc3)SC2)c(C)n1CC1CCCO1 (configuration not stated) | . | . | 11% | ? | 0%[46.1 µM] | . | -22% | -3%
CCC(C)NC(=O)c1ccc(NC(=O)CC2SC(N3CCCC3)=NC2=O)cc1 (configuration not stated) | . | . | -16% | 0% | 3% | . | 2% | -3%
CCOC(=O)c1ccc(CSC(=N)N)o1 | . | 6% | -21% | . | . | . | 11% | 0%
CC(C)(C)c1ccc(OCC(=O)Nc2ccncc2)cc1 | . | -40% | -7% | 12% | ? | . | -14% | -4%
COc1cccc(NS(=O)(=O)c2ccc(C)c(C(=O)N3CCCCC3)c2)c1 | . | -3% | 35%[activator] | -8%[46.1 µM] | 27%[46.1 µM] | . | -29% | -3%
CC(C)c1ccc(NC(=O)C2CCC(CNC(=O)[C@@H]3Cc4ccccc4CN3)CC2)cc1 (some centres not stated) | . | 4% | -3% | . | 5%[46.1 µM] | . | 20% | -3%
CCOc1ccc(NC(=O)C2CC(C)=C(C)CC2C(=O)O)cc1 (configuration not stated) | 6% | ? | -10% | -2% | 7% | -0.8% | -8% | -1%
S=C(Nc1cccc(Cl)c1)NC1CCCCC1 | -1% | -101% | 16% | 14% | -11% | -0.9% | 0% | ?
COc1cc(NC(=O)c2noc3c2CCc2ccccc2-3)cc(OC)c1OC | ? | . | ? | -18%[46.1 µM] | -18%[46.1 µM] | -6.4% | . | .
Clc1ccc(Cc2ccccn2)cc1 | . | . | -2% | 23% | -14%[46.1 µM] | . | -2% | .
Cc1cc(C)c(C)c(S(=O)(=O)N2CCN(c3ccccn3)CC2)c1C | . | -49% | -5% | . | . | . | -4% | -20%
CCOC(=O)c1cnc2c(c(C)nn2CC)c1Cl | . | -5% | -8% | 22%[46.1 µM] | 12% | . | -13% | 0%
Cc1c(C(C)C)c(=O)n(-c2ccc(S(=O)(=O)NC3CC3)cc2)n1C | . | -1% | ? | -1%[46.1 µM] | -6% | . | -22% | 0%
COC(=O)c1c(C(=O)OC)c(-c2cccc(C)c2)n2c1CS(=O)(=O)C2 | 6% | 7% | 11% | 2% | -13% | 3.6% | -3% | -2%
O=C(CCc1ccc(S(=O)(=O)N2CCOCC2)cc1)Nc1nc(COc2ccccc2)cs1 | -21% | -1% | 14µM* | 21µM* | -20% | 0.8% | -3% | 8%
Cc1nc2ccccc2c(=O)n1/N=C/c1cc(Br)cc(Br)c1O | . | . | -19% | ? | -20%[46.1 µM] | . | ? | .
N#CCCN(C(=O)Nc1ccccc1)c1ccccc1 | -5% | -2% | -1% | ? | 16% | 4.4% | 20% | 1%
Cc1cc(CSc2nc(C)cc(=O)[nH]2)c2ncccc2c1 | . | . | 0% | ? | ? | . | -25% | 1%
Cc1ccc2c(c1)N(C(=O)CCC(=O)N1CCN(c3ccccn3)CC1)CCO2 | . | -18% | -11% | . | . | . | -3% | -7%
Cc1c(C)c2c(c(C)c1O)CC[C@@](C)(CCC[C@H](C)CCC[C@H](C)CCCC(C)C)O2 | 5%&9% | . | -19% | . | . | 1.8%&3.5% | 6%[18.4 µM] | .
COC(=O)n1c(=S)oc2cc(Cl)ccc21 | -5% | -117% | . | -2% | . | 2.1% | . | -20%
CCC(C)c1ccc(S(=O)(=O)N2CCN3CCCC3C2)cc1 (configuration not stated) | . | -7% | 5% | 5% | ? | . | 5% | 0%
Cc1ccc2c(c1)N(CC(=O)Nc1nccs1)C(=O)CO2 | . | . | -4% | -6% | 6% | . | 18% | -2%
Cc1cc(-c2ccccc2)nc(N/N=C/c2ccccc2F)n1 | . | -21% | -16% | ? | ? | . | -28% | -11%
CCOC(=O)c1c(NC(=O)CSc2nc3cc(Cl)ccc3c(=O)n2Cc2ccco2)sc(C(=O)N(C)C)c1C | -7% | 29% | -12% | ? | ? | -4.3% | 1% | -11%

# 3 records drawn at random from the list so far:
Molecule | Cruzain noTriton | NS1 inh | StopGo reporter | Marburg entry inh | LASV entry inh | Cruzain inh Det | RE007 growth inh | SARS PLP yeast
Cc1cc(CSc2nc(C)cc(=O)[nH]2)c2ncccc2c1 | . | . | 0% | ? | ? | . | -25% | 1%
CC(C)C(C)(C#N)NC(=O)CSc1ncnc2sc(-c3ccccc3)cc12 (configuration not stated) | ? | 3% | . | -26% | -17% | 0.0% | -3% | 3%
CCC(C)c1ccc(S(=O)(=O)N2CCN3CCCC3C2)cc1 (configuration not stated) | . | -7% | 5% | 5% | ? | . | 5% | 0%

# Next section.
Molecule | Cruzain noTriton | NS1 inh | StopGo reporter | Marburg entry inh | LASV entry inh | Cruzain inh Det | RE007 growth inh | SARS PLP yeast
O=C(NC(=S)N(CCO)Cc1ccccc1)c1ccc(F)cc1Cl | . | -4% | 0% | . | . | . | 6% | 1%
CC(=O)N1CCN(c2nnc(-c3ccccc3)c3ccccc23)CC1 | . | 8% | 16% | . | . | . | 11% | 1%
COc1ccc(-c2[nH]c3c(c2-c2c(-n4cccc4)n(C)c(=O)n(C)c2=O)c(=O)n(C)c(=O)n3C)cc1 | -3% | . | -8% | 4%[46.1 µM] | 23%[46.1 µM] | -2.5% | . | .
COc1ccc(CCNC2=NCC(C)S2)cc1 (configuration not stated) | -2% | 5% | 19% | ? | -21% | 1.5% | -16% | -2%
CCn1c(C)cc(/C=C2\SC(=O)N(CC(=O)Nc3ccc(C)c(C)c3)C2=O)c1C | 16µM* | 15% | -17% | 10% | 5% | 0.1% | -5% | 3%
O=C(N/N=C/c1ccc(Cl)cc1Cl)Nc1ccccc1 | ? | -11% | 59%[activator] | ? | -6% | 8.6% | -1% | 1%
C/C(=N/NC(=O)CN1CCN(S(=O)(=O)c2ccc(C)cc2)CC1)c1cccc(O)c1 | . | 0% | -9% | . | . | . | 5% | 0%
COc1ccc(CNC(=O)COC(=O)c2cc(C)nc3ccccc23)cc1 | . | . | 0% | 21% | -4% | . | -7% | -2%
COc1cc(C(=O)NCCCc2ccccc2)cc(OC)c1OC | . | -5% | -6% | 17%[46.1 µM] | -19%[46.1 µM] | . | -8% | 3%

# Compounds were not picked by outcome. About 4.5% of those tested had a hit in this group.
